T cruzi repl = blocks replication of Trypanosoma cruzi; AID 1885; T. cruzi beta-gal in NIH3T3, luminescence, 90 h; actives 1.4% (n = 300,000); inhibition, % (test concentration not listed);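 active = mean inhibition across valid replicates above about 55%, limit read from the data; inconclusive = mean below that limit but half or more replicates reach it; inactive = mean below it, under half of replicates reach it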;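 note: signal also drops with host cell toxicity which is not excluded here; 0% = plate median of DMSO wells and 100% = zero luminescence signal; higher percent means less beta-gal luminescence so fewer parasites; stock transfer was 50 nL into about 50 µL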
Bfl-1 A1 inh = inhibitors of the anti-apoptotic protein A1, read as caspase activation. AID 2462. caspase activation, % (test concentration not listed). actives 0.066% (n = 330,000). MEF A1-2A-BIM cells, Caspase-Glo 3/7 luminescence, 3 h; percent of clofoctol response, vehicle zero;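 active = over half of replicate activation scores above 10%, or exactly half above 10 with the replicate mean above 10; inconclusive = replicate mean below 10 yet half the replicates above 10; inactive = over half of replicates below 10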;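 note: wells of about 30 µL received 50 nL stock; many hits fall short of the cut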
LANA-H2B inh = blocks KSHV LANA binding to histone H2A/H2B; cell-free LANA-H2A/H2B peptide, fluorescence polarization; inhibition, % (no concentration beside the values); actives 0.6% (n = 320,000); in the data active = inhibition mostly above about 10%, no sharp cut-off; inactive = mostly below about 6.7%;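 note: stock transfer was 7.5 nL into about 10 µL; 0% = median of vehicle wells and 100% = median of positive control wells; one replicate is shown; the record names a cut of 25% in any replicate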
Beta2AR agonist = activates human beta-2 adrenergic receptor causing internalization; Am2.2-beta2AR cells, FAP receptor internalization, flow cytometry; reference of the scale not given here; P07550; actives 0.43% (n = 340,000); response, % (concentration not given with the values);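 active = response above a set limit, near 3 SD of response in nonfluorescent compounds, cut at about 42% in these data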;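 note: stock transfer was 100 nL into about 11 µL; a reference agonist was the positive control; negative values mostly stem from fluorescent compounds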
Target sequence (P07550 whole entry, looked up): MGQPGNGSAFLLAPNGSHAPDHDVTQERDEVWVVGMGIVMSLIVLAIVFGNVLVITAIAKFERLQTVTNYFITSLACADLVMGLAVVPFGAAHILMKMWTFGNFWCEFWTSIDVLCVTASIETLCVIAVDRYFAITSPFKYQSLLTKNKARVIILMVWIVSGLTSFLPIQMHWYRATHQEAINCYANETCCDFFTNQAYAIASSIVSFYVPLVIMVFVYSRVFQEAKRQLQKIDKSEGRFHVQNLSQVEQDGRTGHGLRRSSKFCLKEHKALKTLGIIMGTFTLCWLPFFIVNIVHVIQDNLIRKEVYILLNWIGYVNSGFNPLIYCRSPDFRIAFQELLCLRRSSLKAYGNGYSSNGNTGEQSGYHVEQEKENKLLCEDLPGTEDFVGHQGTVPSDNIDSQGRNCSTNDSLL
UCH37 inh = inhibitors of human deubiquitinating enzyme UCH37; Q9Y5K5; purified proteasome/UCH37, Ub-AMC cleavage fluorescence; inhibition, % (no concentration beside the values); AID 588478; actives 0.33% (n = 330,000);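 active = mean of two replicates above 20%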;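 note: 0% = compound-free wells with enzyme and 100% = wells lacking proteasome; stock transfer was 100 nL into about 20 µL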
Target sequence (Q9Y5K5 whole entry, looked up): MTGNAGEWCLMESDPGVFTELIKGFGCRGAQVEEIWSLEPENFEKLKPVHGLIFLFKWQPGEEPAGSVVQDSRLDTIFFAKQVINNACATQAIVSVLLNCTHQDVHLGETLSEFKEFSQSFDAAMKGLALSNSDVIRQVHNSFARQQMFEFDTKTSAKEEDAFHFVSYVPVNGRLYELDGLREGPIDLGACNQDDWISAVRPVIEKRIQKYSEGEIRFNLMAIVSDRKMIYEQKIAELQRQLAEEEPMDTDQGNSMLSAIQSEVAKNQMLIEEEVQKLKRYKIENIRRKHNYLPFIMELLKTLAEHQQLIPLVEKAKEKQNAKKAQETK
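assay system = human UCH37 enzyme supplied as purified proteasome complex | amount = proteasome at 0.15 nM in the dispensed enzyme solution | schedule = 30 min compound-proteasome preincubation then 25 min substrate reaction, room temperature | measured by = fluorescence, ex 355 nm, em 460 nm | benchmarks = no-proteasome wells (full inhibition) and compound-free wells (no inhibition)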
RanGTP-Impb inh = inhibitors of RanGTP-importin-beta interaction, primary screen, biochemical, FRET, CFP-Ran, YFP-importin-beta, homogeneous; cell-free CFP-Ran/YFP-importin-beta FRET ratio; inhibition, % (test concentration not listed); actives 1.1% (n = 300,000); AID 2216;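 active = most replicates above 15%; inconclusive = exactly half above 15%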;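 note: 0% = DMSO wells and 100% = Ran loaded with GDP instead of GTP; wells of about 40 µL received 100 nL stock; the first replicate is given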
Beta apoptosis = beta cell apoptosis inhibition; INS-1E cytokine-induced death, ATP luminescence, 48 h; percent of positive-control rescue, neutral wells zero; actives 0.8% (n = 300,000); protection from apoptosis, % (test concentration not listed); AID 435005;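 active = all replicates at 75% or more, or half of them and the mean; inconclusive = half reach 75% but not the mean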;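 note: 0% = cytokine-treated negative control wells and 100% = positive control rescue; higher means more ATP so stronger rescue from cytokine killing; wells of about 40 µL received 100 nL stock; the first replicate is given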
Calb FLC = affects C. albicans growth with fluconazole. growth inhibition, % (concentration not given with the values). actives 0.57% (n = 300,000). C. albicans CaCi-2 (fluconazole-resistant clinical isolate) + fluconazole, Alamar Blue growth, 48 h. AID 1979;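 active = most replicates above 75%; inconclusive = exactly half above 75%; inactive = most below 75%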;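 note: all wells also contain fluconazole at 8 µg/ml as a sub-toxic cotreatment; 0% = median of DMSO wells and 100% = median of geldanamycin control wells; wells of about 8 µL received 7.5 nL stock; the first replicate is given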
Active calls of the source: *; ? = inconclusive; . = no result given.

structure	T cruzi repl	Bfl-1 A1 inh	LANA-H2B inh	Beta2AR agonist	UCH37 inh	RanGTP-Impb inh	Beta apoptosis	Calb FLC
CC(=O)NCCC(=O)N1CCc2c([nH]c3ccccc23)C1c1cccc(C)c1 (configuration not stated)	3	0.7	-7.1	3	1.2	-1.0	-3	47
COCCN(C(=O)C1CCN(C(=O)c2ccccc2C)CC1)c1c(N)n(CC(C)C)c(=O)[nH]c1=O	.	0.6	-2.3	0	-5.5	.	-2	.
CCN1CCN(c2ccc(S(=O)(=O)N3CCCCC3)cc2NC(=O)c2sccc2C)CC1	50	-2.1	0.4	-9	-1.0	-3.5	0	-14
CC(C)Cn1c(N)c(C(=O)CSc2nncs2)c(=O)n(C)c1=O	.	1.9	0.5	14	-0.7	.	-2	.
COc1c2ccoc2nc2c(OC)c(O)ccc12	10	-0.9	-2.1	0	2.0	3.1	-3	31
O=C1C(SCCO)=C(SCCO)C(=O)c2ccccc21	.	-2.8	-5.8	-48	.	.	99*	.
Cc1ccc(C(NC(=O)N2CCOCC2)C(Cl)(Cl)Cl)cc1F (configuration not stated)	-11	0.2	5.0	-6	-0.7	-2.6	1	3
CCCCOc1ccc(/C=C(\C#N)C(=O)NC2CC2)cc1	-3	-0.7	3.2	-8	5.2	-2.9	.	43
O=C(CSCc1ccccc1Cl)Nc1c[nH]c(=O)[nH]c1=O	-8	1.6	.	-2	3.1	-0.6	1	-10
Cc1ccc(/C=C/C(=O)NC(=S)Nc2ccccc2C(=O)NC2CCCCC2)cc1	26	-0.1	0.0	3	2.9	-1.3	5	-2
CCN(C(=O)c1c(OC)cccc1OC)c1nnc(-c2cccnc2)s1	1	-0.5	0.1	-5	1.3	-1.6	2	-1
CC(=O)Nc1ccc(NS(=O)(=O)c2cc(-c3n[nH]c(=O)c4ccccc34)ccc2C)cc1	4	0.8	0.0	9	1.1	6.1	-3	-1
CCOC(=O)Cc1csc(NS(=O)(=O)c2ccccc2)n1	-8	1.2	2.1	-2	2.3	-3.0	-4	-8
CCOc1cc(CNS(=O)(=O)c2cn(C)cn2)cc(OCC)c1OCC	5	-0.5	-0.6	0	6.2	0.0	-3	-7
O=C(O)c1cccc(N/N=C(\N=Nc2ccccc2)c2ccccc2)c1	8	-0.9	-2.4	4	.	0.8	-1	-20
COCCCNCCOc1ccc(C(C)(C)c2ccccc2)cc1	61*	-0.3	-3.9	13	0.4	-8.0	-1	-15
CC(NC(=O)c1ccccc1)C(=O)OCC(=O)N1c2ccccc2Sc2ccccc21 (configuration not stated)	-11	0.1	-0.8	1	3.2	4.0	-7	10
CCC1CCCCN1CCCNC(=O)c1c(O)nc2cc(C)ccn2c1=O (configuration not stated)	-9	-0.3	-0.9	2	-36	2.0	-7	13
O=C(COc1ccc2c(-c3ccccc3)cc(=O)oc2c1)NC(Cc1c[nH]c2ccccc12)C(=O)O (configuration not stated)	.	-1.7	-5.8	5	8.5	.	1	.
O=C(Nn1cnnc1)C1Cc2ccccc2CN1S(=O)(=O)c1ccc(F)cc1 (configuration not stated)	1	1.7	2.2	1	-3.0	2.9	-9	-31
COc1ccc(/C=N/Nc2ccccc2)cc1Cn1nc(C)c([N+](=O)[O-])c1C	20	1.1	-3.3	3	.	-8.1	.	-23
COc1ccc(CN(C(=O)c2cc(=O)c3ccccc3o2)C2CCS(=O)(=O)C2)cc1 (configuration not stated)	-16	.	.	-1	1.5	-3.0	.	-10
O=C(NCc1ccccn1)C(=O)NCC1OCCN1C(=O)c1ccc(Cl)cc1 (configuration not stated)	4	0.3	8.6	1	1.1	0.3	1	-22
O=C(Nc1ccc2ccccc2c1)C(=O)C1C(=O)Nc2ccccc21 (configuration not stated)	8	-6.3	-3.9	.	4.3	?	-6	-8
COC(=O)c1c(C)n(-c2ccc(C)cc2)c2ccc(O)cc12	4	.	.	-3	2.0	.	.	69
COc1cccc(-c2nnc3n2N=C(C(C)(C)C)CS3)c1	-17	-1.1	2.1	-9	-0.6	4.8	-48	-30
Cc1ccccc1C(=O)NNC(=O)CSc1nc2ccccc2c(=O)[nH]1	1	-0.5	1.5	-6	2.9	-8.3	-2	-1
CC(Oc1ccc(Br)cc1)C(=O)N(C)CC(=O)Nc1ccc(N2CCOCC2)cc1 (configuration not stated)	-7	0.7	1.5	-2	-1.9	-0.5	-6	6
CCN(CC)CCN(C(=O)c1ccc2c(c1)OCCO2)c1nc2cc(C)cc(C)c2s1	23	0.5	1.6	18	2.4	3.3	-2	2
CN(C(=O)c1ccccc1-c1ccccc1C(=O)O)c1ccccc1	-7	1.6	-8.0	8	6.1	-0.6	0	3
CCCCn1c(=N)n(CC(O)COc2ccccc2)c2ccccc21 (configuration not stated)	-6	0.7	2.2	8	4.4	5.3	.	4
O=C(O)COc1ccccc1/C=N/NC(=O)CSc1nc2ccccc2n1Cc1ccc(Cl)cc1	-6	0.9	-5.9	4	.	-2.7	5	-3
COc1ccc(CCn2nnnc2C(C(C)C)N2CCN(c3ncccn3)CC2)cc1OC (configuration not stated)	-4	0.4	7.5	-4	.	0.1	6	16
COc1ccc(/C=N/NC(=O)c2cc3cc(OC)c(OC)cc3[nH]2)cc1	-10	0.6	-1.2	0	.	6.2	25	5
O=C(CCN1CCCCC1)NCC1OCCc2ccccc21 (configuration not stated)	-2	0.5	8.8	6	-0.8	1.9	2	-2
COc1ccc(OC)c(-n2c(SC)nnc2-c2c[nH]c3ccccc23)c1	26	0.5	3.6	5	2.2	-2.3	-7	1
CC(NC(=O)OCc1ccccc1)C(=O)NCC(=O)NC(Cc1ccc(OC(C)(C)C)cc1)C(=O)OC(C)(C)C (configuration not stated)	13	0.6	0.4	-2	-0.5	3.4	-2	16
CN1C(C(=O)Nc2ccc(OC(F)(F)F)cc2)=CC(c2ccco2)=NS1(=O)=O	11	1.7	-5.1	3	2.2	-3.4	-8	-5
COc1ccc(N2CCN(C(=O)NC(=O)c3ccccc3)CC2)cc1	16	0.2	-5.7	-1	2.2	?	-7	-10
Cc1cc(C)cc(NC(=O)CSc2nc3nc(C)cc(C)c3c(=O)[nH]2)c1	.	0.2	-0.8	9	4.4	.	-6	.
Cc1ccc(C(=O)OCc2ccc3c(c2)OCO3)cc1S(=O)(=O)N1CCCCC1	16	-1.4	0.3	2	0.2	-1.7	-2	-36
CCOC(=O)c1cn2nc(Oc3cccc(C(F)(F)F)c3)ccc2n1	-25	-1.2	4.2	12	-54	-0.1	-4	11
Cc1cnc(NC(=O)Cc2ccc(S(=O)(=O)N3CCOCC3)s2)s1	.	-1.2	-7.3	4	.	.	-7	.
CN=c1scc(-c2ccccc2F)n1/N=C/c1ccc(O)c(O)c1O	-14	.	.	101*	.	2.4	.	7
O=C(O)Cc1c(-c2ccccc2)c2cc(Br)ccc2[nH]c1=O	-2	0.4	0.1	5	2.5	0.8	2	0
Cc1ccnc(NS(=O)(=O)c2ccc(NC(=O)C34CC5CC(C)(CC(C)(C5)C3)C4)cc2)n1	-16	-0.3	1.2	17	2.0	1.4	-3	-3
O=C(CN(C(=O)c1csnn1)c1ccccc1Cl)NC1CCCC1	5	-0.2	-3.6	-2	1.6	-1.8	-6	1
COc1ccc(C(F)(F)F)cc1N/C=C\c1nnnn1-c1ccccc1	15	0.6	3.1	-3	-6.0	3.0	9	-4
CCOC(=O)N1CCN(C(=O)C2CCN(Cc3nc(-c4ccccc4C)oc3C)CC2)CC1	1	-0.5	0.4	-13	-0.5	3.5	-1	6
CCOC(=O)N1CCC(N(CCCOC)C(=O)Nc2cccc(OC)c2)CC1	8	-0.1	-1.5	3	3.0	1.8	6	1
CCc1ccc(Nc2nnc(SCC(=O)N(C)CC(=O)Nc3ccccc3CC)s2)cc1	7	0.0	-0.3	-7	3.7	-0.2	-5	0
O=c1c2c(nc3c(-c4ccccc4)c[nH]n13)CCC2	-7	-0.1	6.8	6	-12	-5.5	5	-2
CCCN(CC(=O)Nc1ccc(Cl)cc1Cl)C(=O)/C=C/c1cc(OC)ccc1OC	9	0.5	-8.2	-1	-399	0.9	.	16
CC(=O)c1ccc(OC(=O)COc2ccccc2)cc1	-2	-0.8	-3.8	1	2.4	2.7	1	-11
O=C(Cn1nc(-c2ccc(Cl)cc2)ccc1=O)NCC1COCCO1 (configuration not stated)	-7	0.1	-0.5	4	3.0	1.3	-8	-1
COc1ccc(CCNC(=O)CSc2ncc(C(=O)Nc3ccccc3)c(=O)n2C)cc1	10	-6.2	-1.2	1	5.3	-3.1	1	1

New compounds follow:
structure	T cruzi repl	Bfl-1 A1 inh	LANA-H2B inh	Beta2AR agonist	UCH37 inh	RanGTP-Impb inh	Beta apoptosis	Calb FLC
CNc1ncc(C(=O)c2ccc(F)cc2)s1	-47	0.3	-0.5	-8	12	-0.6	-6	0
CC(C)N1C(=O)C(O)(C2COC(C)(C)CC2=O)c2ccccc21 (configuration not stated)	-15	-0.2	1.9	7	5.8	2.9	-5	-38
CCOC(=O)N1CCN(C(=O)CSc2nc(CC)nc3c2c(=O)n(C)c(=O)n3C)CC1	16	0.4	1.9	1	2.3	6.7	1	1
O=C(Nc1ccc(SC(F)F)cc1)c1ccc(F)cc1	2	-7.0	3.2	-1	1.1	?	2	-30
CC(=O)Oc1cccc(/C=C2\Sc3ccccc3C2=O)c1	16	-4.6	14*	7	1.2	1.3	-1	-15
COc1ccc(C(NC(=O)CC(C)C)NC(=O)CC(C)C)cc1OC	-4	-0.1	3.7	-2	0.5	4.0	0	1

Screening data: PubChem, several laboratories

Rows are unselected; about 4.3% have a hit in one of these screens.
